MenB inh: M. tuberculosis MenB inhibitors, primary screen, biochemical, absorbance. MenB enzyme assay, absorbance read-out; some hits fall short of the stated cut. AID 540299, 2011. 1,4-dihydroxy-2-naphthoyl-CoA synthase (Mycobacterium tuberculosis (strain ATCC 25618 / …. hit rate 0.43% among 100,000. inhibition, %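 (about 12 µg/mL by stock and volumes)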;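 active = mean of two replicates above 30%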;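 note: 0% = no compound and 100% = wells with inactive enzyme; the first replicate is given; strong numbers were not always called active; inactives centre near -10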
Target sequence (P9WNP5 whole entry, looked up): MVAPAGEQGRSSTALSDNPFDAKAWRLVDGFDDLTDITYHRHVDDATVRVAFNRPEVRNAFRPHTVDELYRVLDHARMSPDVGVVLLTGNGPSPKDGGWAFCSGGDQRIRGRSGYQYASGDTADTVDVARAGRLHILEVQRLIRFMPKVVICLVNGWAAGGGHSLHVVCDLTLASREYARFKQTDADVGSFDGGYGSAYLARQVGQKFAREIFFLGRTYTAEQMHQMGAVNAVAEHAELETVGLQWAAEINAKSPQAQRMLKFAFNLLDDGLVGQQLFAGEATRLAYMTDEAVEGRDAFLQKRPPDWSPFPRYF
PV pol inh: poliovirus RdRp elongation inhibitors, primary screen, biochemical, fluorescence polarization, total intensity | poliovirus polymerase elongation; hits give low values | % elongation, % (compound at 16.7 µg/mL) | hit rate 0.66% among 150,000 | Genome polyprotein (Poliovirus type 1 (strain Mahoney)), P03300; in the data active = % elongation below about 90%; note: some results filed as inactive read as strong as hits
Target sequence (P03300 1749-2209 limits assumed): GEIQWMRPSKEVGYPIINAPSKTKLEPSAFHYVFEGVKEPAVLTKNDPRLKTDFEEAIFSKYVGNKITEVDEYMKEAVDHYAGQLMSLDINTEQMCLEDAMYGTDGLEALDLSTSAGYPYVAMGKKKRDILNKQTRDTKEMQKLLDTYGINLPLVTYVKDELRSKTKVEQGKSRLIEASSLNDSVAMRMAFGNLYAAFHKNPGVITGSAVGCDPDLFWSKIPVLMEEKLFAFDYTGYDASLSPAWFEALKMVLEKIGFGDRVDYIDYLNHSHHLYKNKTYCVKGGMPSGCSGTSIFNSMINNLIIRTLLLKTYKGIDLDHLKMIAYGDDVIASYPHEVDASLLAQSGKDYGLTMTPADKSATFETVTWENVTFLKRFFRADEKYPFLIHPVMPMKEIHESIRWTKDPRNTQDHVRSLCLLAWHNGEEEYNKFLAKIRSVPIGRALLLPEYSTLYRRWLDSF
Mtb MbtI inh: MbtI salicylate synthase inhibitors, primary screen, biochemical, fluorescence intensity; inhibition, %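 (about 17 µg/mL by stock and volumes)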; hit rate 0.89% among 100,000; AID 493033, 2011; purified MbtI enzyme, fluorescence intensity read-out; P9WFX0;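 active = above 50% in both replicates, above 80% if mildly self-fluorescent; inactive = the rest, strongly fluorescent compounds included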;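 note: 0% = mean of negative and 100% = mean of positive controls; one replicate is shown; some compounds called inactive have numbers as strong as hits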
PV pol inh intensity: further read-out of PV pol inh, marked with its call; % elongation; measured here: total intensity read-out; formula for this scale not given here;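 total fluorescence in place of polarization; lower means less elongation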
* hit, by the source's call; i = inactive; nt = not tested or not shown; & = joins results of further samples.

SMILES	MenB inh	PV pol inh	PV pol inh intensity	Mtb MbtI inh
CCc1ccc(C(=O)CC2OC(=O)c3c2ccc(OC)c3OC)cc1 (configuration not stated)	-20.3	107.0	108.0	nt
CCN(CC)S(=O)(=O)c1cccc(-c2nnc(SCC(=O)Nc3cc(C)c(Cl)cc3OC)o2)c1	6.5	101.0	108.0	-10.8
NS(=O)(=O)c1ccc(Nc2nc(-c3cccs3)cs2)cc1	-19.2	100.0	106.0	nt
CCCn1c(=O)c2[nH]cnc2n(-c2ccccc2C)c1=O	-17.8	108.0	102.0	-1.1
COc1ccc(C(CN)CC(=O)O)cc1 (configuration not stated)	-24.0	104.0	104.0	-9.2
Fc1ccc2nc3n(c2c1F)CCCCCC3	3.4	102.0	102.0	6.8
O=C(N1CCC(O)(c2cccnc2)CC1)C12CC3CC(CC(C3)C1)C2	25.4*	101.0	99.0	-0.6
c1coc(C2OCC(CN3CCCCC3)O2)c1 (configuration not stated)	-6.7	107.0	101.0	-6.2
CC(=O)Nc1ccccc1N1CCCCC1	-18.1	103.0	101.0	-6.1
CCC(=O)Nc1ccc2c(c1)ncn2C(C)(C)C	-20.2	104.0	110.0	nt
O=C1NC2=C(CCc3ccccc32)C(c2ccccc2)N1 (configuration not stated)	0.0	100.0	100.0	i
O=C(COc1cccc2ccccc12)N1CCN(S(=O)(=O)c2ccc3c(c2)OCCO3)CC1	-13.6	103.0	109.0	-6.6
O=C(Nc1ccc(-c2nc3ccccc3s2)c(O)c1)c1ccccc1	-19.4	106.0	102.0	5.8
CC1CC(=O)C2=C(C1)Nc1nc3ccccc3n1C2c1cccs1 (configuration not stated)	4.6	100.0	104.0	3.9
C/C=C/c1c(F)c(F)c(Oc2ccc(C(=O)O)cc2)c(F)c1F	-18.0	103.0	103.0	-12.7
O=C(Cn1c(=O)oc2cc(S(=O)(=O)NC3CCCC3)ccc21)NCc1ccc(F)cc1	-22.1	103.0	101.0	-12.0
OC(COC1CCCCC1)Cn1cnc2ccccc21 (configuration not stated)	-8.3	101.0	101.0	-8.2
NNc1ccc(Cl)c(Cl)c1	nt	96.0	94.0	-3.4
COc1cc2c(cc1OC)C(SC)=NC(C)(C)C2	19.1	102.0	101.0	-20.1
O=C(N/C(=C/c1ccccc1)S(=O)(=O)c1ccccc1)c1ccccc1	-11.7	104.0	106.0	9.4
Cc1nc2ccccc2n1C(C)C(=O)O (configuration not stated)	-68.4	100.0	103.0	-3.9
O=C(c1ccc(Cl)cc1)N1CCCn2c1nc1ccccc12	3.2	100.0	101.0	7.9
N#Cc1oc2ccccc2c1NC(=O)COC(=O)c1c2c(nc3ccccc13)CCCCC2	-30.8	107.0	105.0	4.7
CCc1ccc(NC(=O)C(C)OC(=O)c2ccncc2)cc1 (configuration not stated)	nt	103.0	103.0	-3.6
C=CCC(Nc1ccc(OC)cc1)c1ccco1 (configuration not stated)	1.4	106.0	113.0	nt
COc1cccc(C2CC(=O)Nc3nc(N)[nH]c(=O)c32)c1 (configuration not stated)	7.6	100.0	101.0	-1.8
COc1ccc(CCN(C)C(=O)CSc2nnc3n2CCCCC3)cc1OC	-8.6	106.0	111.0	12.6
CC(=O)Nc1ccc(NC(=O)C(C)OC(=O)C2CC3C=CC2C3)cc1 (configuration not stated)	nt	102.0	106.0	-11.1
CCOC(=O)c1n[nH]c(=S)[nH]c1=O	-12.0&-6.6	102.0&97.0	111.0&95.0	-3.1&30.5
CCCCn1c(CCc2cc(OC)c(OC)c(OC)c2)nc2cc(S(N)(=O)=O)ccc21	6.5	102.0	109.0	3.7
C=CCN(CC=C)S(=O)(=O)c1ncn[nH]1	4.2	102.0	103.0	nt
CCN1C(=O)c2ccc(-c3nc4cc(Cl)ccc4o3)cc2C1=O	-1.0	100.0	104.0	-22.0
Cc1cccc(N2CCN(C(C)C(=O)N(C)c3ccccc3)CC2)c1C (configuration not stated)	-11.0	nt	nt	-9.8
CC(NC(=O)C1=NN(C2CCS(=O)(=O)C2)C(=O)CC1)c1ccc(S(N)(=O)=O)cc1 (configuration not stated)	2.4	109.0	108.0	-4.5
CCOC(=O)c1cncc(C#CCOC(=O)c2c(-c3ccccc3)noc2C)c1	-15.1	102.0	111.0	-3.1
CC(OC(=O)c1ccco1)C(=O)Nc1ccccc1-c1ccccc1 (configuration not stated)	-25.9	102.0	107.0	4.3
CC(C[N+](C)(C)C)OC(=O)C1(c2ccccc2)CCCC1 (configuration not stated)	-1.5	103.0	100.0	-7.0
CCN(CC)CCN1Cc2c(sc(C)c2C)N(C(=O)c2ccccc2)C1	13.8	104.0	101.0	6.3
C=CCn1c(=S)[nH]c2sccc2c1=O	-22.1	105.0	102.0	35.0
FC(F)(F)c1ccccc1N=C1CCCc2ccccc21	2.4	107.0	109.0	-13.9
CCCCN1C(=S)SC(C)(C)C1NO (configuration not stated)	17.8	101.0	102.0	18.1
CCc1ccc(-c2cn3c(n2)SCC3)cc1	-57.8	102.0	98.0	-4.3
CCn1nc(C(=O)OCC(=O)c2cc(C)n(Cc3cccs3)c2C)c2ccccc2c1=O	-27.4	101.0	103.0	-2.0
CC(C)n1c(COc2ccc(Cl)cc2)nc2ccccc21	-29.6	105.0	103.0	nt
CCN1CC(=O)N(c2ccccc2OC)C1=S	-16.1	105.0	101.0	nt
Cc1csc2nc(SCCC(=O)Nc3ccccc3)[nH]c(=O)c12	-17.4	101.0	104.0	-4.1
COc1cc2c3c(ccc2c(OC)c1OC)-c1[nH]ncc1CC3	-20.1	106.0	103.0	nt
CCOc1ccc(C2SCC(=O)Nc3c2c(=O)[nH]n3C(C)C)cc1 (configuration not stated)	10.2	100.0	98.0	3.5

One compound at a time, as listed above:
COc1cc2c3c(ccc2c(OC)c1OC)-c1[nH]ncc1CC3 in the list: MenB inh: -20.1; PV pol inh: 106.0; PV pol inh intensity: 103.0; Mtb MbtI inh: nt
CCn1nc(C(=O)OCC(=O)c2cc(C)n(Cc3cccs3)c2C)c2ccccc2c1=O in the list: MenB inh: -27.4; PV pol inh: 101.0; PV pol inh intensity: 103.0; Mtb MbtI inh: -2.0
FC(F)(F)c1ccccc1N=C1CCCc2ccccc21 in the list: MenB inh: 2.4; PV pol inh: 107.0; PV pol inh intensity: 109.0; Mtb MbtI inh: -13.9

Limited to PV pol inh and Mtb MbtI inh, for some of the entries so far:
Compound	PV pol inh	Mtb MbtI inh
CCCCN1C(=S)SC(C)(C)C1NO (configuration not stated)	101.0	18.1
CCc1ccc(-c2cn3c(n2)SCC3)cc1	102.0	-4.3
CCn1nc(C(=O)OCC(=O)c2cc(C)n(Cc3cccs3)c2C)c2ccccc2c1=O	101.0	-2.0
CC(C)n1c(COc2ccc(Cl)cc2)nc2ccccc21	105.0	nt
CCN1CC(=O)N(c2ccccc2OC)C1=S	105.0	nt
Cc1csc2nc(SCCC(=O)Nc3ccccc3)[nH]c(=O)c12	101.0	-4.1
COc1cc2c3c(ccc2c(OC)c1OC)-c1[nH]ncc1CC3	106.0	nt

More results follow.
SMILES	MenB inh	PV pol inh	PV pol inh intensity	Mtb MbtI inh
CCNC(=S)N/N=C/c1ccc(C)s1	-54.3	100.0	106.0	9.4
CN(CCC#N)C(=O)c1cc2c(s1)-c1ccccc1S(=O)(=O)C2	9.3	103.0	98.0	11.3
O=C1c2ccccc2C(=O)N1CCc1nnn(Cc2ccc(Cl)cc2)n1	-9.3	103.0	112.0	-2.8
C=CCN1C(=O)C(CC(=O)Nc2ccc(Cl)cc2)NC1=S (configuration not stated)	-57.8	102.0	102.0	1.4
c1ccc(OCc2nnc(-c3ccccc3)o2)cc1	-2.9	100.0	101.0	-7.3
CC(C)NC(=S)N/N=C/C1CC=CCC1 (configuration not stated)	-33.9	102.0	100.0	-14.3
Cc1cccn2c(=O)c3cc(C(=O)NC4CCCCC4)c(=N)n(Cc4ccco4)c3nc12	-11.2	93.0	123.0	11.1
CCC1CCCCN1C(=O)CSc1ncnc2ccccc12 (configuration not stated)	nt	99.0	96.0	-6.4
COCc1cc(C)nc(OCC(=O)O)c1C#N	-18.8	101.0	100.0	7.6
Cc1nn(C)c2c1S(=O)(=O)N=C(N1CCOCC1)S2	-10.5	81.0*	78.0*	3.5
CCOC(=O)NN1C(=O)c2ccccc2NC1C (configuration not stated)	-0.7	100.0	101.0	117.3
O=C1c2ccccc2C(=O)N1CCN1CCN(Cc2ccccc2)CC1	11.2	102.0	96.0	1.9
Cc1nc2ccccc2nc1CSc1nnc(-c2cccc(S(=O)(=O)N3CCOCC3)c2)o1	-15.3	97.0	111.0	10.9
Cc1ccc(/C=C/C(=O)O)o1	nt	101.0	104.0	27.9
CNC(=O)NC(=O)C(Sc1nnc(-c2ccc(C)cc2)o1)c1ccccc1 (configuration not stated)	1.6	98.0	101.0	0.0
S=c1oc(-c2ccccc2)nn1CNc1ccccc1	-32.6	105.0	102.0	18.4
Cc1[nH]c2ccccc2c1C1=CSC2=NS(=O)(=O)CCN12	-21.8	95.0	95.0	9.1
CC1=C(C(=O)N2CCCCC2)C(c2cccs2)C2=C(CCCC2=O)N1 (configuration not stated)	-15.2	101.0	97.0	-2.0
O=C(COC(=O)C1COc2ccccc2O1)Nc1ccccc1 (configuration not stated)	-22.6	105.0	106.0	-3.5
COc1ccc(C2CCCN2Cc2nc(N)nc(Nc3ccc(C)cc3)n2)c(OC)c1 (configuration not stated)	-13.1	106.0	107.0	-5.2
CCN(CC(=O)Nc1ccccc1OC)Cc1cc(=O)n2cc(Cl)ccc2n1	-27.4	105.0	108.0	46.0
O=C(O)CCN=C1CCCc2ccccc2N1	-6.4	101.0	104.0	-0.9
CC(C)(C)NC(=O)c1nc(-c2ccccc2)n(-c2ccccc2)n1	-14.6	106.0	107.0	-7.4
CSc1sc(NC(=O)N2CCOCC2)c(-c2ccc(Cl)cc2)c1C#N	-5.7	106.0	109.0	-1.0
Nc1nc(-c2ccccc2)nc2sc3c(c12)CCCC3	-22.1	110.0	111.0	nt
O=C(Nc1ccc(Cl)cc1)c1csc(COc2ccc3nonc3c2)n1	-10.7	106.0	109.0	-7.5
O=C(c1cccc(F)c1)N1CCN(Cc2c[nH]c3ccccc23)CC1	-14.8	103.0	101.0	8.4
C=CCSc1nc2sc3c(c2c(=O)n1-c1ccc(C)cc1)CCC3	-20.8	104.0	110.0	nt
CCN(Cc1ccccc1)C(=O)Cc1ccccc1	-4.9	99.0	106.0	-11.6
Cc1cc(C(=O)N2N=C(C3CC3)CC2(O)C(F)(F)F)c2ccccc2n1 (configuration not stated)	-9.5	101.0	96.0	-0.5
O=C(CSC1=NC2(CCCC2)Nc2ccccc21)Nc1ccc2c(c1)OCCO2	-25.8	101.0	104.0	29.1
CCn1cc(Cc2cn(CC)nc2C)c(C)n1	7.4	102.0	102.0	14.6
O=C(CSc1nncc(=O)[nH]1)Nc1cccc(Cl)c1	-51.1	101.0	107.0	72.8*
COc1ccc(CCNC(=O)C2CCCN2C(=O)NC2CCCCC2)cc1OC (configuration not stated)	-7.3	105.0	100.0	-5.4
CC(C)Cn1cnc2c1c(=O)n(Cc1coc(-c3ccccc3)n1)c(=O)n2Cc1ccccc1	-22.4	102.0	101.0	-9.3
c1ccc(N=C2OCC(COc3ccccc3)S2)cc1 (configuration not stated)	-30.1	100.0	108.0	nt
Cc1ccccc1NC(=O)Cc1nnc(SC(C)c2nc3ccccc3c(=O)[nH]2)n1C (configuration not stated)	-63.2	104.0	104.0	0.3
CS(=O)(=O)c1ccc([C@@H](O)[C@@H](CF)NC(=O)C(Cl)Cl)cc1	0.6	103.0	100.0	-14.0
Nc1ccc(S(=O)(=O)N2CC(=O)NC(=O)C2)cc1	-1.9	100.0	102.0	-18.0
O=c1/c(=C\c2ccccc2)sc2nc3ccccc3n12	nt	97.0	96.0	29.0
O=C(NCCc1ccc(F)cc1)c1ccco1	nt	102.0	104.0	-3.4
N/C(=N\OC(=O)c1ccccc1)c1cccnc1	12.6	102.0	108.0	-3.0
CC(CC(=O)Nc1ccccc1)CC1=NS(=O)(=O)c2ccccc2N1 (configuration not stated)	10.9	101.0	101.0	-1.9
Cc1cc(Cc2cccs2)c(=O)[nH]n1	1.3	99.0	105.0	-6.8
O=c1cc(O)c2c(=O)n3c4c(cccc4c2o1)CCC3	-12.7	104.0	101.0	-12.2
Cc1nn(C(C)(C)C)c(C(=O)Sc2cccc(C(F)(F)F)c2)c1Br	-14.2	108.0	113.0	-1.3
CCc1ccc(OC)c(S(=O)(=O)N2CCCCC2)c1	-14.8	101.0	100.0	-8.2
O=C(Nc1cccc2ccccc12)c1cc2ccccc2oc1=O	-7.3	102.0	107.0	0.2
O=C(NCCN1CCCCC1)Nc1ccccc1	1.9	102.0	105.0	-6.2
COc1ccccc1NC(=O)CSc1nc2ccccc2o1	-16.6	100.0	101.0	9.9
CCNC(=O)c1ccccc1-c1nc(-c2ccc(OC)c(OC)c2)no1	-56.5	106.0	102.0	0.9
CN(C)S(=O)(=O)c1ccc(SCC(=O)Nc2ccc3c(c2)CCC3)nc1	-10.5	98.0	108.0	12.8
CCCOc1ccccc1O	-20.1	103.0	106.0	-1.4
CCOC(=O)c1cc(-c2ccccc2)n(CC(=O)N2CCN(C3CCCCC3)CC2)c1C	-16.5	101.0	103.0	-20.0
